KSHV LANA nucl: LANA-nucleosome interaction inhibition | FITC-LANA1-23 / chicken nucleosome fluorescence polarization; active compounds read low | z-score (concentration not given with the values) | 0.3% of 51,000 active | AID 720717;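 active means both repeat wells score below -2 in polarization z-score versus plate sample wells, excluding overly bright wells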;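 further: 100 nL library stock added to about 30 µL; numbers are from one replicate; some results filed as inactive read as strong as hits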
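Material: Purified chicken nucleosomes with FITC-labelled LANA N-terminal peptide (1-23) | Reagent: 50 nM FITC-LANA1-23 probe | Medium: TEN-BT buffer, pH 7.5 | Times: 10–45 min incubation at room temperature | Detection: Fluorescence polarization | Replication: Duplicates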
Ab BasE inh: inhibitors of Acinetobacter baumannii siderophore enzyme BasE; purified BasE, fluorescence polarization binding displacement; inhibition, % (concentration not given with the values); 0.1% of 84,000 active;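 active means both replicates above 25% with normal brightness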;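 further: 0% = negative plate control signal and 100% = positive plate control signal; stock transfer was 100 nL into about 30 µL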
Starred values were filed as active, the others as inactive; · = not tested or not shown; & = joins results of further samples. These rows are one share of the data; the hit share may differ from the screen's.

Under each structure – KSHV LANA nucl | Ab BasE inh
C#CC(/C=C/C)OC(=O)c1ccccc1C(=O)O (stereo not given)
  2.1 | 0.2
CCOC(=O)c1ccc(N2N=C(C(F)(F)F)CC2=O)cc1
  -0.67 | 1.7
ON=C(Cc1ccccc1)Cc1ccccc1
  · | 0.8
Cc1sc(/N=C/c2ccccc2O)c(C#N)c1C
  · | 19
CCN1C(=C(C#N)C#N)C=Cc2ccccc21
  · | 0.4
COCCN(C(=O)c1ccccc1)c1nnc(-c2ccncc2)s1
  0.86 | -0.1
Cc1cc(C)n(-c2ncnc3sc4c(c23)CCC4)n1
  · | 1.2
C/C(=N\NC(=O)c1cccnc1)c1ccc(S(=O)(=O)NCc2ccco2)cc1
  · | -0.5
NC(=O)C1(c2ccccc2)CCOCC1
  -0.76 | 0.8
CC1CC(C)CN(CCCN)C1 (stereo not given)
  -0.75 | 0.1
C=CCN(C(=O)CN1CCOCC1)c1nc(C)c(-c2ccccc2)s1
  · | -1.5
c1cc2cc(C3=NCCN3)ccc2cc1C1=NCCN1
  -1.3 | -3.7
CCn1c(O)c(/C=N/N=C2/C(=O)N(C)c3ccccc32)c(=O)n(CC)c1=S
  · | 1.7
CCCC1OC2CC3C4CCC5=CC(=O)C=CC5(C)C4C(O)CC3(C)C2(C(=O)O)O1 (stereo not given)
  -0.8 | 1.6
Cc1oc2cc(O)ccc2c(=O)c1-c1ccccc1
  · | 0.7

(cont.)
Under each structure – KSHV LANA nucl | Ab BasE inh
O=C(O)CC(=O)Nc1cc(Cl)ccc1O
  -0.35 | 4.2
Cc1ccc(C)c(-n2c(SCCN)nnc2-c2cccc(Cl)c2)c1
  · | 1.2
Cc1csc2ncc(C(=O)N(C)Cc3ccccc3)c(=O)n12
  -0.49 | 2.3
COc1ccc(N=c2scc(C)n2CCCN2CCCC2=O)cc1
  · | 0.8
CC1CCCC(N2CNc3nc4ccccc4n3C2)C1C (stereo not given)
  -0.28 | 3.9
CC(NS(=O)(=O)c1ccccc1)C(N)=O (stereo not given)
  -0.95 | 0.5
O=S(=O)(NCc1cc(F)cc2c1OCOC2)c1ccc(N2CCOCC2)nc1
  2.2 | -3.6
O=C(Nc1cccc(Cl)c1)OC1CCCCc2cccnc21 (stereo not given)
  · | 0.5
CC(=O)Oc1ccc2c(c1)C(C)=CC(C)(C)N2C(C)=O
  -0.47 | 1.4
Fc1ccc(Oc2cnccn2)c(Cl)c1
  · | 1.4
CC1CN(C(=O)CCS(=O)(=O)c2ccccc2)CC(C)O1 (stereo not given)
  0.32 | 0.1
COCc1cc(=O)n2[nH]c(Nc3cc(Cl)ccc3C)nc2n1
  · | 2.2
O=C1NCCCc2nc(N3CCCCC3)sc21
  -0.31 | ·
O=C(CCCN1C(=O)CSc2ncccc21)N1CCN(c2ccccn2)CC1
  -0.52 | 0.5
O=c1cc(CN2CCOCC2)nc2sccn12
  · | 0.0

Remaining list, next part
Under each structure – KSHV LANA nucl | Ab BasE inh
O=C(CCCN1CCC(O)(c2ccc(Br)cc2)CC1)c1ccc(F)cc1
  -0.33&0.47 | -1.9
CC(/C(=N/O)c1ccccc1)N1CCC(O)O1 (stereo not given)
  · | 3.6
CCNC(=S)NCc1ccc2c(c1)OCO2
  -0.4 | 0.5
CC(Sc1nnc(-c2ccco2)n1Cc1ccccc1)C(=O)NC1CCCC1 (stereo not given)
  · | 1.9
CC(=O)N(Cc1ccccc1C)c1cccc(C)c1C
  -1.2 | 4.7
Fc1ccc2nc(N3CCc4ccccc4C3)sc2c1
  -0.56 | 1.7
Cc1ccc(F)cc1NC(=O)CNC(N)=O
  · | 2.8
O=C(Cc1ccccc1)NNc1cccc(Cl)c1
  0.092 | -0.6
Cc1cc(C)cc(NCCC#N)c1
  · | 3.6
COc1ccc(-c2n[nH]c(=S)n2/N=C/c2cccc(OC)c2O)cc1
  2.3 | -3.1
CC(c1ccco1)N(C(=O)c1sc2ccccc2c1Cl)c1ccccn1 (stereo not given)
  · | -0.8
c1ccc(-c2nc(CSc3nc4ccccc4[nH]3)c(CSc3nc4ccccc4[nH]3)o2)cc1
  0.43 | -2.4
Cc1ccc(N2CCN(C(=O)c3cccs3)CC2)cc1C
  -0.45 | -1.6
C/C(=N\O)C1(C)N(O)C(C)(C)C(c2cccs2)=[N+]1[O-] (stereo not given)
  · | 2.6
Nc1ccc(C(=O)CC(=O)Nc2ccc(Cl)cc2)cc1
  · | -0.1

Three records drawn at random from the list so far, as already listed:
Under each structure – KSHV LANA nucl | Ab BasE inh
Nc1ccc(C(=O)CC(=O)Nc2ccc(Cl)cc2)cc1
  · | -0.1
CC(=O)N(Cc1ccccc1C)c1cccc(C)c1C
  -1.2 | 4.7
O=C(O)CC(=O)Nc1cc(Cl)ccc1O
  -0.35 | 4.2

Later entries
Under each structure – KSHV LANA nucl | Ab BasE inh
Cc1oc(-c2ccccc2)nc1C(=O)N(C)Cc1cccc(Cl)c1Cl
  · | 0.4
Cc1oc2ncnc(N3CCC(C(N)=O)CC3)c2c1C(=O)O
  0.7 | 14
CCOC(=O)c1cccc(NC(=O)C2CCCCC2)c1
  0.46 | -2.6
COc1ccc(-n2nnc(C(N)=O)c2N)cc1
  0.11 | -0.1
Cc1onc(-c2ccccc2)c1C(=O)NCCN1CCNC1=O
  0.29 | -0.5
O=P(c1ccccc1)(c1ccccc1)C(O)c1ccncc1 (stereo not given)
  · | 0.8
O=C(Nc1ccccc1C(F)(F)F)N1CCCCCC1
  -1.1 | 1.9
COCc1c(C(C)C)nc(C(C)C)c(/C=C/[C@@H](O)C[C@@H](O)CC(=O)O)c1-c1ccc(F)cc1
  0.6&-0.2 | ·
O=C(CCCc1nc2ccccc2c(=O)[nH]1)Nc1ccnn1C1CCCC1
  · | -3.2
CC1=NNC(=O)C1Cc1ccccc1 (stereo not given)
  · | 1.8
CC(NC(=O)Nc1ccccc1)c1ccccc1 (stereo not given)
  -0.14 | -2.2
CN(CC(=O)NC1(C#N)CCCC1)Cc1cccc(F)c1
  · | 1.8
O=C(CN1C(=O)COc2ccccc21)NCc1ccco1
  -0.89 | 1.8
CCOc1ccc2c(c1)=C(c1sc(N)nc1O)C(=O)N=2
  -0.58 | 0.3
O=C(CSc1ncnc2c1nnn2Cc1ccccc1)OCc1ccccc1
  0.44 | 0.1

Going on with the list:
Under each structure – KSHV LANA nucl | Ab BasE inh
CCCn1c(SCC(N)=O)nnc1C1CC1
  1.9 | -3.6
CC(N)c1ccc2c(c1)CCC2 (stereo not given)
  0.81 | -93
CCOC(=O)c1cc(C(=O)NN)c(C)nc1C
  · | 0.5
CC(=O)NCCC(=O)Nc1nnc(SCc2ccc(C#N)cc2)s1
  · | -4.0
CC(=O)N[C@@H](Cc1c[nH]c2ccccc12)C(=O)O
  -0.21 | -0.1
Cc1cc(C(=O)NCCCn2ccnc2)cs1
  0.48 | 0.4
O=c1cc(CN2CCCCC2)c2cc(O)ccc2o1
  0.2 | -0.8
O=C(NCc1nnc(SCC(=O)N2CCc3ccccc32)o1)c1ccccc1
  -0.24 | 0.5
Nc1nc2c3cccc4cccc(c(=O)n2n1)c43
  -0.83 | 5.7
O=c1c[n+]([O-])c2ccccc2n1OCc1c(F)cccc1F
  -0.15 | 0.6
O=C(O)/C=C\C(=O)NCc1cccs1
  -0.46 | 2.9
C=CC(=O)n1nccc1-c1sc(COc2cccc(Cl)c2)nc1C
  · | -1.6
CN(C)S(=O)(=O)c1cccc(COC(=O)Cn2cnc3ccccc3c2=O)c1
  · | -0.1
Cc1ccc(-c2cc(-c3ccccc3)c(C#N)c(S(=O)Cc3ccccc3)n2)cc1 (stereo not given)
  -1.5 | 0.5
Cc1c(NC(=O)C(C)OC(=O)c2ccc3c(c2)OCO3)c(=O)n(-c2ccccc2)n1C (stereo not given)
  · | -0.8

The list continues.
Under each structure – KSHV LANA nucl | Ab BasE inh
Cc1c(CN2CCc3ccccc3C2)sc2ccccc12
  · | 3.2
CCOC(=O)N1CCN(C(=O)CSc2nc3c([nH]c4ccccc43)c(=O)n2-c2ccc(OCC)cc2)CC1
  0.73 | 1.2
O=C(c1cc(=O)[nH]c2ccccc12)N1CCSC1=NCCc1ccccc1
  · | -2.0
CCCC1=NNC(=O)C1Cc1c(Cl)cccc1Cl (stereo not given)
  · | -0.4
CC1(C)C2CCC1(CS(=O)(=O)N1CCCN(c3nc4ccc(Cl)cc4s3)CC1)C(=O)C2 (stereo not given)
  · | 0.6
O=C(NC1CSCC1=O)c1ccccc1 (stereo not given)
  0.3 | -0.6
COc1ccc(OCC(=O)N2CCOCC2)cc1
  -1.4 | 0.2
CCN(CCO)C(=O)Cc1cc(=O)[nH]c(=O)[nH]1
  -0.71 | 3.2
OC(c1nc2ccc(F)cc2[nH]1)C(O)c1nc2ccc(F)cc2[nH]1 (stereo not given)
  0.005 | ·
COc1ccc(-n2ccn3c(CCC(=O)O)nnc3c2=O)cc1
  0.053 | 3.3
CCN(CC)S(=O)(=O)c1ccc2oc(SCc3cn4c(C)cccc4n3)nc2c1
  · | 0.3
COc1ccc(N2CCN(CCCNC(=O)Nc3ccccc3)CC2)cc1
  -0.032 | 1.0
Cc1nc(C)c(C#N)c(-c2ccc(Cl)cc2)c1C#N
  0.21 | ·
O=C(NCCC(=O)N1CCOCC1)c1ccc(Cl)cc1
  · | 0.3
Cc1ccc2cc(/C=C(\C#N)C(N)=O)c(N(C)C)nc2c1
  · | -1.6

Next entries.
Under each structure – KSHV LANA nucl | Ab BasE inh
CN(O)/C=C/C(=O)c1ccc(Br)cc1
  -0.078 | ·
CC(C)(C)c1csc(Cc2ccccc2Cl)n1
  · | 2.0
COc1ccc(-c2cc(C(F)(F)F)nc(S(=O)(=O)CCC(=O)NCc3cccnc3)n2)cc1
  -0.55 | 1.3
CN1CCC(NC(=O)c2cccc(C(F)(F)F)c2)CC1
  · | 0.5
O=C(Cn1ncn2c(cc3ccccc32)c1=O)NC1CC1
  0.013 | 0.0
CCC(CC)c1nnc(NC(=O)COc2ccc3c(c2)OCO3)s1
  -0.96 | 1.7
CC(O)CN=c1cc(-c2ccccc2)oc2ccc(Cl)cc12 (stereo not given)
  · | 0.6
CC(C)CC(C(=O)N1CCOCC1)N1Cc2ccccc2C1=O (stereo not given)
  0.42 | ·
COC(=O)c1sccc1NC(=O)C1CCCN(S(=O)(=O)N2CCCCCC2)C1 (stereo not given)
  -1.4 | 1.7
Cc1n[nH]c(C)c1SCC(=O)O
  · | 0.2
CSc1nsc(NC(=O)OCc2ccc(Cl)cc2)n1
  0.35 | 0.6
CC(O)(P(=O)(O)O)P(=O)(O)O
  0.69&0.38&0.44 | 0.6
O=C(Nc1ccccc1)C1CCN(S(=O)(=O)c2ccccc2)CC1
  · | 0.8
CCN(CC)CC#Cc1cccc(C)c1
  · | -1.8
O=C(NC1CCCCC1)NC1(C(=O)N2CCC(O)CC2)CCCCC1
  -0.73 | 2.1

The listing continues:
Under each structure – KSHV LANA nucl | Ab BasE inh
CCOC(=O)C1=C(C)N=C(SC)N(C)C1c1ccccc1 (stereo not given)
  · | 1.6
CCN1C(=O)C(=Cc2c(O)n(CC)c(=O)n(CC)c2=O)C(=O)N(CC)C1=O
  · | 1.6
O=C(O)C1CCCN1C(=O)/C=C/c1ccco1 (stereo not given)
  -0.29 | 0.7
Cc1cc(NC(=O)CS(=O)(=O)c2cn(Cc3ccccc3Cl)c3ccccc23)no1
  0.34 | -0.7
CCOC(=O)c1cc(NC(=O)c2ccc3c(c2)OCO3)cc(C(=O)OCC)c1
  1.4 | -0.9
C/C=C/C(=O)NC(C)c1ccccc1 (stereo not given)
  0.62 | 5.9
O=C(N1CCOCC1)N1CCC(c2ccc(F)cc2)CC1
  0.57 | 0.4
O=C(Nc1ccccc1C(=O)OCc1c(F)cccc1Cl)c1ccco1
  -1.1 | 3.2
CCS(=O)(=O)Nc1ccc(C(=O)Nc2cc(C)ccc2OC)cc1
  -0.24 | 1.2
CCC(C)N=Cc1c(NCc2ccco2)nc2c(C)cccn2c1=O (stereo not given)
  · | -0.7
O=C(NC1CCCC1)c1ccc(-n2cnc3cccnc32)cc1
  0.83 | -0.1
CCn1c(CC(=O)Nc2ccccc2C)nnc1SCC(=O)N1CCN(c2ccccc2)CC1
  0.55 | 0.9
CC(=O)Nc1ccc(NC(=O)c2ccc(-c3ccc(Cl)cc3Cl)o2)cc1
  -0.35 | -1.0
COC(=O)c1ccccc1NS(=O)(=O)c1cc2c3c(c1)C(C)C(=O)N3CCC2 (stereo not given)
  -2 | 1.7
O=C1C(=Cc2ccc(-c3ccc(F)cc3F)o2)C(=O)c2ccccc21
  0.072 | -1.7

Later entries.
Under each structure – KSHV LANA nucl | Ab BasE inh
O=c1cc(O)nc(-c2ccccc2)[nH]1
  · | 3.5
O=C(C1c2ccccc2Oc2ccccc21)N1CCC(c2ccccc2)C1 (stereo not given)
  · | -0.5
CC(N)c1ccc(S(N)(=O)=O)cc1 (stereo not given)
  · | 0.4
Cn1c(=O)cc(OCC(=O)NCCCN2CCCCCC2)c2ccccc21
  0.46 | -0.1
Cc1ccc(S(=O)(=O)c2cc(O)ccc2O)cc1C
  1.8 | -0.7
CSCCNC(=O)Nc1c(-c2c(Cl)cccc2Cl)noc1C
  -0.038 | -0.5
CC(C)n1c(O)c(N=NC(=O)C2CC2)c2ccccc21
  · | -1.4
Nc1cc(Cl)ccn1
  -0.7 | 6.6
CCCn1nc(C(=O)N2CCc3ccccc32)c2ccccc2c1=O
  · | 0.0
CCCCCOCC1Cc2c(C)nn(C(N)=S)c2O1 (stereo not given)
  -0.075 | -2.0

Some of the entries so far, field by field:
CC(N)c1ccc(S(N)(=O)=O)cc1 (stereo not given)
  KSHV LANA nucl: ·; Ab BasE inh: 0.4
CCCn1nc(C(=O)N2CCc3ccccc32)c2ccccc2c1=O
  KSHV LANA nucl: ·; Ab BasE inh: 0.0
CC(C)n1c(O)c(N=NC(=O)C2CC2)c2ccccc21
  KSHV LANA nucl: ·; Ab BasE inh: -1.4

High-throughput results deposited in PubChem BioAssay by ICCB-Longwood Screening Facility, Harvard Medical School.
